# From PubChem
# Arbovirus inh = antivirals against arbovirus infection, primary screen, cell-based, full library, 10K replicate subset. 200,000 tested, 0.37% active. inhibition, % at 10 µM. arbovirus infection cell-based antiviral screen. AID 1251, 2008;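 active = inhibition from about 30%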;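 note: bluetongue infection of BSR cells; cell survival read as ATP light after 72 h; 0% = infected wells without compound and 100% = uninfected wells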
# RecA intein inh = Mtb RecA intein splicing inhibitors, primary screen, biochemical, fluorescence, HTS | inhibition, %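 (about 9 µM by stock and volumes)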 | 290,000 tested, 0.75% active | cell-free RecA intein splicing | AID 2221, 2009; in the data active = inhibition above about 30%;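 note: 0% = vehicle wells and 100% = reference inhibitor control wells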
# Target sequence (P9WHJ3 whole entry, looked up): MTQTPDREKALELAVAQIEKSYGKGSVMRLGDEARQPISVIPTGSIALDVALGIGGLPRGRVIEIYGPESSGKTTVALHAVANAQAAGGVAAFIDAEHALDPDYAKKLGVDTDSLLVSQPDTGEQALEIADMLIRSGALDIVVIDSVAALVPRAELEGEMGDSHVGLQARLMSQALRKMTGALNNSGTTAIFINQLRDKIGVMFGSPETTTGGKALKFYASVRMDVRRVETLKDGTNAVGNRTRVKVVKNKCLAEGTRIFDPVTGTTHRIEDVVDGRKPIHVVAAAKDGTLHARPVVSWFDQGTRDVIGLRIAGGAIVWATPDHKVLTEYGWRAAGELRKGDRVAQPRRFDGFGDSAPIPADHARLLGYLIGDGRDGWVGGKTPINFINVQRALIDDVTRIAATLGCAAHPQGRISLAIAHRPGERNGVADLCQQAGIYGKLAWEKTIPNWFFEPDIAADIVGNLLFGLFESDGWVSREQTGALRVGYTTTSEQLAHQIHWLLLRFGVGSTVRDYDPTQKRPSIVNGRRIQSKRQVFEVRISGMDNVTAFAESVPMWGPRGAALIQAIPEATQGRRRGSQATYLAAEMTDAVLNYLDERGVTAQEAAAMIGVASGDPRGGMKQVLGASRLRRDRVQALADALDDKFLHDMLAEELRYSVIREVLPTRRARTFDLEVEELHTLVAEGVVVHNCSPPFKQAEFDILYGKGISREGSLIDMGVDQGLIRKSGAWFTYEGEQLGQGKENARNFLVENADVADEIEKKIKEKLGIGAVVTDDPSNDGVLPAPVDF
# Mtb growth = M. tuberculosis H37Rv growth inhibitors, H37Rv strain (AID 1626); one-dose inhibition, % at 10 µM; IC50 in µM for titrated hits; 220,000 tested, 0.95% active; M. tuberculosis H37Rv growth inhibition; higher % means a stronger effect;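 active = confirmed in a dose series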;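 note: bacteria incubated seven days before Alamar blue readout; 0% = bacteria only wells and 100% = bacteria with antibiotic wells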
# YopH PTP inh = YopH tyrosine phosphatase inhibitors, primary screen, biochemical, fluorescence Ex485/Em525 | YopH tyrosine phosphatase [Yersinia enterocolitica] | inhibition, %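 (about 10 µM by stock and volumes)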 | 140,000 tested, 0.16% active;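 active = inhibition of 50% or more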;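 note: controls were vehicle for no effect and minimum signal wells for full effect; inactives centre near -20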
# Mtb betalactam = beta-lactam sensitization of Mtb H37Rv, H37Rv; AID 434955, 2010; M. tuberculosis H37Rv growth with meropenem, percent inhibition; hits of this screen are not shown here; inhibition, % at 25 µM; 330,000 tested, 0.27% active;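 active = about 74% or more and at least 40 points above the plate without the antibiotic, then above 30% in a dose series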;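 note: growth measured after seven days incubation then overnight dye step; 0% = bacteria only wells and 100% = bacteria with antibiotic; twin plates without the antibiotic show which effects depend on it; some results filed as inactive read as strong as hits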
# Arbovirus inh repeat = second read-out of Arbovirus inh, no call of its own (marks repeat the call); inhibition, %; measured here: 10K subset replicate screen; many hits read low in the repeat;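 first of two repeat runs on a subset; 0% = infected and 100% = uninfected wells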
# * marks the source's active call; other numbers are inactive results; x = not tested or not shown. A portion of the library, so the mix of outcomes need not match the whole.
SMILES,Arbovirus inh,RecA intein inh,Mtb growth,YopH PTP inh,Mtb betalactam,others
CCOC(=O)C(C(=O)OCC)C1CS(=O)(=O)CC1C(C(=O)OCC)C(=O)OCC (stereo unspecified),1,0.9,3%,-16,-2,
CCCCn1c(C2CCCCC2)nc2cc3[nH]c(=O)c(C(C)C)nc3cc21,x,0.7,x,x,71,
C[C@H]1CN(Cc2ccccc2)C(=O)[C@@H]1CC(=O)NCc1ccccc1,x,-6.2,x,x,-10,
CCN1C(=O)[C@H]2[C@@H](c3ccc(-c4ccc(F)cc4)c(OC)c3)N[C@@](CC(C)C)(C(=O)OC)[C@H]2C1=O,x,23,x,x,-16,
CCOC(=O)N1CCC(NC(=O)C2CCN(C(=O)N3CCOc4ccccc43)CC2)CC1,7,-1.3,-3%,-5,-2,
CC(=O)c1cc(C#N)c(N2CCCCC2)nc1C,1,-0.5,0%,x,-7,
O=C(O)c1ccccc1C(=O)c1cccc2ccccc12,x,-0.4,x,x,11,
Cc1ccc(S(=O)(=O)NCC(=O)OCC(=O)N2CCc3ccccc32)cc1,3,0.0,-7%,-46,0,
COCC(=O)NCCc1nc(-c2ccccc2)cs1,-1,-9.3,6%,-46,-7,
O=c1[nH]c2ccccc2n1CCCSc1cnc2ccccc2n1,13,2.3,-6%,19,-10,
O=C(COC(=O)c1ccccc1Br)Nc1nnc(-c2ccccc2)o1,x,-1.6,x,x,91,
O=C1NN(c2cccc(Br)c2)C(=O)/C1=C/c1ccc(-c2cc([N+](=O)[O-])ccc2O)o1,x,-0.1,3%,x,8,
CCOC(=O)C1SC2(C(F)F)CC1(O)c1c(c(OC)c3occc3c1OC)O2 (stereo unspecified),-1,0.8,-14%,7,3,
COc1ccc(C2=NCCNC(C(F)(F)F)=C2)cc1,-3,0.4,1%,x,-7,
CC(C)(C)c1ccc(-c2nnc(SCCN3C(=O)c4ccccc4C3=O)o2)cc1,-2,6.0,4%,-1,48,
O=C(O)C(=O)/C(=C\c1ccc([N+](=O)[O-])cc1)c1ccc2ccccc2n1,-14,-2.1,4%,x,-2,
CCOC(=O)CSc1nnc(CNC(=O)Cc2ccccc2)n1-c1ccccc1OC,-1,x,3%,-1,-2,
CCOC(=O)Cc1csc(NC(=O)c2ccoc2C)n1,-2,2.8,1%,-21,-6,
CCn1nc(C)cc1C(=O)NC1CCCc2c1cnn2-c1cc(F)cc(F)c1 (stereo unspecified),x,-0.3,x,x,-3,
O=C(Nc1cccc(S(=O)(=O)N2CCCCC2)c1)c1cc([N+](=O)[O-])ccc1N1CCOCC1,x,4.5,x,x,-10,

# 6 neighbouring records from above:
SMILES,Arbovirus inh,RecA intein inh,Mtb growth,YopH PTP inh,Mtb betalactam,others
COc1ccc(C2=NCCNC(C(F)(F)F)=C2)cc1,-3,0.4,1%,x,-7,
CC(C)(C)c1ccc(-c2nnc(SCCN3C(=O)c4ccccc4C3=O)o2)cc1,-2,6.0,4%,-1,48,
O=C(O)C(=O)/C(=C\c1ccc([N+](=O)[O-])cc1)c1ccc2ccccc2n1,-14,-2.1,4%,x,-2,
CCOC(=O)CSc1nnc(CNC(=O)Cc2ccccc2)n1-c1ccccc1OC,-1,x,3%,-1,-2,
CCOC(=O)Cc1csc(NC(=O)c2ccoc2C)n1,-2,2.8,1%,-21,-6,
CCn1nc(C)cc1C(=O)NC1CCCc2c1cnn2-c1cc(F)cc(F)c1 (stereo unspecified),x,-0.3,x,x,-3,

# The results go on:
SMILES,Arbovirus inh,RecA intein inh,Mtb growth,YopH PTP inh,Mtb betalactam,others
Cc1ccc(NC(=O)C2C3C=CC4(O3)C2C(=O)N(CCCN2CCCC(C)C2)C4C(=O)NC2CCCCC2)cc1 (stereo unspecified),x,-0.4,x,x,-8,
COc1cccc(C2=NOC(C(=O)NCc3cccnc3)C2)c1 (stereo unspecified),x,-1.1,x,x,-5,
Cc1cc(C)cc(C(=O)NCC(=O)OCc2cc([N+](=O)[O-])cc3c2OCOC3)c1,2,-1.3,2%,-20,2,
O=C(NN1CCOCC1)c1cccc(Cl)c1,x,-0.5,x,x,-2,
O=C(CCn1ccc2cc(S(=O)(=O)N3CCCC3)ccc21)NCc1cccc(F)c1,x,-7.3,x,x,7,
COc1ccc(N=C(N(C)C)P(=O)(N(C)C)N(C)C)cc1,1,-1.6,-7%,7,-5,Arbovirus inh repeat=0
CC/C(=N\NC(=O)c1nnn(-c2nonc2N)c1CN(C)c1ccccc1)c1ccccc1,x,-2.2,x,x,1,
CN(CC(=O)Nc1ccc(F)cc1)C(=O)COC(=O)/C=C/c1cccs1,x,-13,x,x,-2,
CCOC(=O)Nc1ccc2c(c1)nc(CN1CCOCC1)n2C,7,1.1,-3%,19,2,
O=C(NNC(=O)c1cnccc1C(F)(F)F)c1ccc(Cl)cc1,x,-1.6,-3%,x,-2,
Cc1ccc(CN2C(=O)CCC2C(=O)NCCCN2CCC(C)CC2)cc1 (stereo unspecified),0,-0.6,1%,6,x,
CC(NC(=O)CSc1ncnc2nc[nH]c12)c1ccccc1 (stereo unspecified),3,0.0,3%,-26,-22,Arbovirus inh repeat=0
OC(c1ccccc1)(c1ccccc1)C1CN2CCC1CC2 (stereo unspecified),-24,-1.6,-8%,x,11,
Oc1ccccc1CNc1ncc(Br)cc1Br,-38,16,0%,15,34,
Cc1ccc([N+](=O)[O-])c2c1C(N1CCCC1)C(C)(C)O2 (stereo unspecified),6,3.7,7%,x,6,
O=C1CC(C(=O)NCc2ccccc2)C2(CCCC2)O1 (stereo unspecified),5,0.7,-5%,-29,-4,
CC(C)(O)C(=O)NNC(=S)Nc1ccc(F)c(Cl)c1,5,-2.3,15%,x,5,
O=C(CSc1nnc(Cc2cccs2)n1Cc1ccco1)Nc1ccc(Cl)cc1Cl,-14,3.1,1%,-53,14,
CCNCc1cc(Cl)cc(OC)c1OC(C)C,2,-1.9,2%,-21,-2,
S=C(NCCc1ccc(Cl)cc1)Nc1ccc(Cl)cc1Cl,-33,27,17%,-15,13,
O=C(O)c1ccc2c(=O)n3c(nc2c1)/C(=C/c1ccccc1Br)CC3,x,0.3,x,x,-5,
c1ccc2c(c1)CCN(c1ncnc3nc[nH]c13)C2,-1,0.1,12%,-39,-4,
Fc1ccc(CCNC(=S)Nc2ccc(F)c(Cl)c2)cc1,-34,9.3,4%,x,86,
CCc1nnc(NC(=O)C2CC(=O)N(c3ccc(C)cc3)C2)s1 (stereo unspecified),9,-0.1,-1%,-43,3,
CCOC(=O)c1cc2c(N)c(C(=O)c3ccc(Br)cc3)sc2[nH]c1=O,32*,0.2,2%,x,1,
Cc1cc(C)cc(NC(=O)Cn2nnc(C(=O)NCc3cccs3)c2N)c1,x,-0.1,x,x,-2,
O=C(Cc1ccc(Cl)cc1)NCCN1CCCC1,5,-1.8,-4%,-36,-4,
CCN1CCN(c2ccc(S(=O)(=O)N3CCOCC3)cc2NC(=O)c2ccc(F)cc2Cl)CC1,x,13,x,x,-7,
Cc1cc(C)cc(NC(=O)CSc2ccc(-c3ccccn3)nn2)c1,x,-1.1,x,x,-17,
CCCN(CCC)CC(O)COc1ccccc1C(=O)Nc1ccccc1 (stereo unspecified),x,4.5,-5%,x,-4,

# The closing 5 compounds of the section before come first, to join the parts.
SMILES,Arbovirus inh,RecA intein inh,Mtb growth,YopH PTP inh,Mtb betalactam,others
Cc1cc(C)cc(NC(=O)Cn2nnc(C(=O)NCc3cccs3)c2N)c1,x,-0.1,x,x,-2,
O=C(Cc1ccc(Cl)cc1)NCCN1CCCC1,5,-1.8,-4%,-36,-4,
CCN1CCN(c2ccc(S(=O)(=O)N3CCOCC3)cc2NC(=O)c2ccc(F)cc2Cl)CC1,x,13,x,x,-7,
Cc1cc(C)cc(NC(=O)CSc2ccc(-c3ccccn3)nn2)c1,x,-1.1,x,x,-17,
CCCN(CCC)CC(O)COc1ccccc1C(=O)Nc1ccccc1 (stereo unspecified),x,4.5,-5%,x,-4,
CN(Cc1ccccc1)c1nc2c(c(=O)[nH]c(=O)n2C)n1Cc1ccccc1F,x,-0.2,x,x,0,
Nn1cnnc1SCC(=O)Nc1ccc2c(c1)OCCO2,4,-2.2,-1%,-8,0,
O=C(CSCc1ccc(Cl)cc1)NCc1ccc2c(c1)OCO2,-11,x,x,-16,-10,
COC(=O)[C@H](CCSC)NS(=O)(=O)c1ccccc1Br,x,-2.2,-10%,x,4,
O=C(NCc1cccs1)C1CCN(c2nccs2)CC1,-2,1.2,1%,-47,-6,
Cc1nn(CC(=O)Nc2ccc3c(c2)nc2n3CCOC2)c(=O)c2ccccc12,-1,0.0,-5%,-13,-17,
O=c1c2ccccc2c(C=Nc2ccc(S(=O)(=O)Nc3ncccn3)cc2)c(O)n1-c1cccc(Cl)c1,-6,-5.1,12%,x,1,
CCOC(=O)c1sc(=S)n(CC)c1NC(=O)C1CC1,-5,-0.3,2%,-21,-2,
N#CC1=C(O)C(c2ccccc2)n2c1nc(=O)c1ccccc12 (stereo unspecified),2,2.6,-18%,-7,-1,
CC(C)CCOc1ccc(C(=O)NCC(c2ccco2)N(C)C)cc1 (stereo unspecified),x,0.3,x,x,-9,
CCN(CC(=O)Nc1ccc(NC(C)=O)cc1)C(=O)COc1ccc2ccccc2c1,x,2.2,x,x,1,
Cc1sc(NC(=O)CCCC(=O)O)c(C#N)c1C,-1,1.4,-3%,-12,-11,Arbovirus inh repeat=6
Cc1ccc(C2NC(=S)NC3=C2N2CCC3CC2)cc1 (stereo unspecified),5,-2.1,-18%,20,-17,
N#C/C(=C\c1ccc[nH]1)S(=O)(=O)c1ccccc1,-5,2.3,-4%,-16,-9,
Cc1ccc(OCC(=O)NCCNC(=O)c2ccccn2)cc1,x,-0.2,x,x,-8,
O=C(N1CCCCCC1)N1CCN(C(=O)N2CCCCC2)CC1,-1,-1.3,-5%,4,-1,
O=C(Nc1nnc(CCc2ccccc2)s1)c1cccs1,5,-6.0,0%,-32,-3,
O=C(Cc1cccc2ccccc12)Nc1nc(-c2cccc([N+](=O)[O-])c2)cs1,0,1.7,4%,-18,30,
CCOc1cccc(/C=N/NC(=S)Nc2cc(S(=O)(=O)N3CCOCC3)ccc2N2CCOCC2)c1O,-36,1.6,1%,-19,-11,
O=C(NCc1cccnc1)C(=O)Nc1nccs1,3,-0.4,1%,x,-3,
O=C(COC(=O)c1cccc(S(=O)(=O)N2CCc3ccccc32)c1)NC1CCS(=O)(=O)C1 (stereo unspecified),1,-1.1,0%,-6,-6,
Cc1c(/C=C2\NC(=O)NC2=O)c2ccccc2n1C,x,-3.5,x,x,1,
COC(=O)c1ccc(Cn2c(C)cc(C)[n+]2C)o1,6,0.6,-2%,-14,-4,
CNc1ccc(S(=O)(=O)NCC(=O)OCC(=O)Nc2cccc(Cl)c2Cl)cc1[N+](=O)[O-],-3,0.8,-1%,-32,-3,
O=C(c1ccc(Cl)cc1)N1CCN(CCOc2ccccc2)CC1,x,1.7,x,x,-4,
COc1ccc(COc2ncnc3ccc(Br)cc23)cc1F,x,-0.3,x,x,-3,
